# Screens: PubChem BioAssay, National Center for Advancing Translational Sciences (NCATS)
# Vaccinia Venus: qHTS for Stage-Specific Inhibitors of Vaccinia Orthopoxvirus: Venus Reporter Primary qHTS | Vaccinia virus Venus reporter expression, fluorescence | Potency, µM (series often up to 36.5 µM), for inactives: at the highest dose activity change, negative = inhibition, most hits filed as inhibitors | hit rate 0.46% among 330,000 | AID 720580, 2013; active means well fitted inhibition curve with a large enough effect; inconclusive means small, poorly fitted or top-dose-only effect; inactive means no such curve, though single readings can be large or run the other way; tested in A549 cells; further: nearly all actives have a fitted effect of over 30% in size; inactives centre near -10
# Vaccinia mCherry: qHTS for Stage-Specific Inhibitors of Vaccinia Orthopoxvirus: mCherry Reporter Primary qHTS. Vaccinia virus mCherry reporter infection, fluorescence; about a quarter of the inactives have no number. hit rate 0.63% among 310,000. Potency, µM (series often up to 36.5 µM), inactives show top-dose activity change, negative = inhibition, actives largely listed as inhibitors. AID 720579, 2013; active = well fitted inhibition curve with a large enough effect; inconclusive = small, poorly fitted or top-dose-only effect; inactive = no such curve, though single readings can be large or run the other way; tested in A549 cells; further: nearly all actives have a fitted effect of over 35% in size; inactives centre near -10
# The depositor's hits bear a star; i = inactive; ? = inconclusive; nt = not tested or not shown; & = joins results of further samples; [ ] = remark or other dose. On the % scale 0 is the no-effect control and ±100 the full control effect; potency means the concentration at half of the fitted maximal effect.
# Start of the listing, in advance (6 entries):
item	SMILES	Vaccinia Venus	Vaccinia mCherry
1	Cc1ccc(Cc2c(-c3cccc(Cl)c3)nc3ccc(Cl)cn23)cc1	5%	47%[activator]
2	Cc1cc(C)n2nc(Cc3ccccc3)nc2n1	-6%	-9%
3	C=CCn1c(C)nc2c(sc3nc4c(cc32)COC(C)(C)C4)c1=O	-9%	-12%
4	CC(Sc1ccc(Cl)cc1)C(=O)NNC(=O)c1ccco1 (configuration not stated)	3%	-15%
5	c1cncc(CNc2ncncc2-c2ccc3c(c2)OCO3)c1	-10%	0%
6	CCOc1cccc(Oc2ncccc2C(=O)/C(C#N)=C/N(C)C)c1	-10%	-26%

# All compounds of this part (from the top)
item	SMILES	Vaccinia Venus	Vaccinia mCherry
1	Cc1ccc(Cc2c(-c3cccc(Cl)c3)nc3ccc(Cl)cn23)cc1	5%	47%[activator]
2	Cc1cc(C)n2nc(Cc3ccccc3)nc2n1	-6%	-9%
3	C=CCn1c(C)nc2c(sc3nc4c(cc32)COC(C)(C)C4)c1=O	-9%	-12%
4	CC(Sc1ccc(Cl)cc1)C(=O)NNC(=O)c1ccco1 (configuration not stated)	3%	-15%
5	c1cncc(CNc2ncncc2-c2ccc3c(c2)OCO3)c1	-10%	0%
6	CCOc1cccc(Oc2ncccc2C(=O)/C(C#N)=C/N(C)C)c1	-10%	-26%
7	Cc1ccc(OCc2n[nH]c(=S)n2-c2ccccc2)cc1C	-12%	-5%
8	Cc1ccc(NC(=O)C2CCN(S(=O)(=O)c3ccc4c(c3)NC(=O)C(C)S4)CC2)cc1C (configuration not stated)	-26%	-5%
9	O=C(CNc1ccccc1N1CCCC1=O)Nc1cc(C(F)(F)F)ccc1-n1cncn1	-13%	0%
10	CN(CC(=O)Nc1ccccc1C(F)(F)F)Cc1c(O)ccc2ccccc12	-6%	-12%
11	CCC(C)NCCOCCOc1ccc(Cl)cc1Br (configuration not stated)	-9%	-6%
12	Cc1ccc(C)c(Cn2c(C(C)O)nc3ccccc32)c1 (configuration not stated)	-19%	nt
13	CCOC(=O)C1=C(COC(=O)CNC(=O)c2ccc(Cl)cc2Cl)NC(=O)NC1C (configuration not stated)	-3%	-14%
14	COc1ccc(CNc2ccccc2C(=O)NCc2ccccc2)cc1COc1ccc(NC(C)=O)cc1	-18%	-18%
15	O=C(/C=C(/c1ccc(Cl)cc1)n1cncn1)c1ccccc1	?	?
16	NS(=O)(=O)c1ccc(S(=O)(=O)N2CCN(C3CCCC3)CC2)cc1	5%	i
17	COc1ccc(Cc2nnn(CC(=O)O)n2)cc1	-15%	-12%
18	CC(=O)Oc1ccc2c(=O)c(-c3nc4ccccc4s3)coc2c1	-8%	i
19	COc1ccc(C(=O)OCC(=O)Nc2cccc(S(=O)(=O)N3CCCCCC3)c2)cc1[N+](=O)[O-]	-12%	-16%
20	CC1=NN(c2ccccc2)C(=O)/C1=C\c1cn(CCC#N)nc1-c1ccc(Cl)cc1	-4%	i
21	COc1ccc(CN(Cc2ccncc2)C(=O)CCC(=O)O)cc1	-9%	i
22	COc1ccc2nc(NC(=O)CN3C(=O)NC4(CCCC4)C3=O)sc2c1	-24%	?
23	CCOc1c(OC)cccc1C1CC(=O)Nc2cc3c(cc21)OCCO3 (configuration not stated)	-23%	-3%
24	CCSc1nnc(NC(=O)C(CC)(C(F)(F)F)C(F)(F)F)s1	?	nt
25	O=C(CN1C(=O)NC2(CCCCC2)C1=O)N(Cc1ccco1)Cc1cccs1	-7%	-10%
26	CC(OC(=O)c1cccc(S(=O)(=O)N2CCN(C)CC2)c1)C(=O)Nc1ccc(C(N)=O)cc1 (configuration not stated)	-4%	-18%
27	CCOCCCNC(=O)C(c1ccc(C)cc1)N(Cc1cccs1)C(=O)CNC(C)=O (configuration not stated)	-13%	-14%
28	COc1ccc(CNC(=O)[C@H](C)N2C(=O)N3CCc4c([nH]c5ccc(OC)cc45)[C@@]3(C)C2=O)cc1	2%	3%
29	CCc1ccc(Sc2cc(C(=O)NCCCOC(C)C)c3ccccc3n2)cc1	-9%	-4%
30	Cc1ccc(Cl)cc1C1=CC(=O)C[C@H](c2ccc(F)cc2)C1	-15%	0%
31	CCCC[n+]1c(/C=C/c2c(OC)cc(OC)cc2OC)ccc2ccccc21	126%[activator]	10µM*
32	COc1ccc(NC(=O)C(Sc2nnc(-c3ccncc3)n2-c2ccccc2C)c2ccccc2)cc1Cl (configuration not stated)	-24%	-11%
33	CN(CC(=O)Nc1cccc(F)c1)C(=O)c1cc2c(s1)CCCCC2	2%	-1%
34	COC(=O)c1ccc(NC(=O)CC2Nc3cc(C)c(C)cc3NC2=O)cc1 (configuration not stated)	-17%[7.34 µM]	-17%[7.34 µM]
35	N#C[C@H](O[C@@H]1O[C@H](CO[C@@H]2O[C@H](CO)[C@@H](O)[C@H](O)[C@H]2O)[C@@H](O)[C@H](O)[C@H]1O)c1ccccc1	-5%	-25%
36	COc1ccc(-c2ccc(N3C(c4cc(OC)cc(OC)c4)=Cc4ccc(OC)cc4C3CC(C)=O)cc2)cc1 (configuration not stated)	2%	2%
37	Cc1cc(-c2ccccc2)nc(Cl)c1C#N	0%	-1%
38	COc1ccc(NN=Nc2ccc([N+](=O)[O-])cc2)cc1	-7%	-16%
39	CCc1ccc(C2c3c(-c4ccccc4O)n[nH]c3C(=O)N2Cc2ccncc2)cc1 (configuration not stated)	-28%	?
40	CCOC(=O)c1c(C)[nH]c(CCC(=O)Nc2c(Cl)cc(OC)cc2OC)c1C	-12%	-17%
41	O=C(/C=C/Nc1ccc(F)cc1Br)c1ccccc1	-3%	3%
42	COc1ccc([N+](=O)[O-])cc1N(CC(O)CN1CCOCC1)S(=O)(=O)c1ccccc1 (configuration not stated)	-3%	-12%
43	CCN(C(=O)COC(=O)Cc1coc2cc(C)ccc12)c1c(N)n(Cc2ccccc2)c(=O)[nH]c1=O	-15%	-3%
44	Cc1ccc(Oc2ncccc2/C=N/O)cc1	-23%	nt
45	N#CC1=C(S)N=C(N)C(c2nc(-c3ccccc3)cs2)C12CCCC2 (configuration not stated)	-8%	-29%
46	Cc1ccc(-c2nnn(CC(=O)NC(=O)NC3CCCCC3)n2)cc1	-5%	-10%
47	CCN1CCCC1CNS(=O)(=O)c1ccc(F)c(Cl)c1 (configuration not stated)	-4%	?
48	N/C(=N\OC(=O)CCCOc1ccccc1)c1cccc([N+](=O)[O-])c1	-13%	?
49	O=C(NCC1COc2ccccc2O1)C1CCCN(S(=O)(=O)c2cccc3nsnc23)C1 (configuration not stated)	-14%	-30%
50	COc1ccc(Br)cc1CNC(=O)c1nn(-c2ccc(C)cc2)c(=O)c2c1c1ccccc1n2C	-1%	-5%

# Later entries
item	SMILES	Vaccinia Venus	Vaccinia mCherry
51	Cc1cccc(NC(=O)CCNC(=O)c2ccccc2Cl)n1	-5%	i
52	O=S(=O)(O)c1cccnc1SCc1ccccc1	-8%	0%
53	Cc1cccc(-c2cc3c(N=O)c4ccccc4c-3n[nH]2)c1	-12%	-9%
54	COc1ccc(C2CC(c3ccccc3)Nc3nc(NC(=O)c4cccs4)nn32)cc1 (configuration not stated)	-27%	nt
55	S=c1[nH]nc(-c2cc(-c3ccccc3)n[nH]2)n1/N=C/c1ccc(Cl)cc1	-29%	-8%
56	CCOc1ccc(S(=O)(=O)c2c[nH]c3ccccc3c2=O)cc1	-1%&5%	-8%&2%
57	Cc1ccc(NC(=O)CCN2C(=O)c3ccccc3Sc3ncccc32)cc1	-24%&-6%	-29%&2%
58	O=C(Cn1cnc2c(nnn2-c2ccccc2)c1=O)NCC1CCCO1 (configuration not stated)	-11%	i
59	Cc1cc(F)ccc1-c1cc(C(=O)Nc2ccc(F)cc2)[nH]n1	15%	-9%
60	Cc1ccc(S(=O)(=O)NC(=O)NN2CCCCCC2)cc1	-8%	-11%
61	Cc1ccc(Cl)cc1N1CCN(C(=O)CN2C(=O)COc3ccc(S(=O)(=O)N4CCC(C)CC4)cc32)CC1	-8%	-7%
62	Cc1cccc(C(=O)NC2(C(F)(F)F)N=C(c3ccccc3)N(C3CCCCC3)C2=O)c1 (configuration not stated)	-11%	4%
63	CCOC(=O)c1cc(OC(=O)c2cc(OC)cc(OC)c2)n(-c2ccccc2)n1	-2%	3%
64	O=C(O)C1=NN(c2c(F)c(F)cc(F)c2F)C(=O)CC1	-3%	-25%
65	O=C(Nc1nc(-c2ccccn2)cs1)C1CC(=O)N(c2ccc3c(c2)OCCO3)C1 (configuration not stated)	-13%	-13%
66	CCOc1ccc(NC(=S)N/N=C(\C)Cc2ccc(OC)cc2)cc1	-5%	-25%
67	CCN1C(=NCc2ccc(OC)cc2)N[C@@H](CCc2ccccc2)[C@H](C(=O)NCc2ccc(OC)cc2)[C@H]1C	5%	i
68	CCc1nc2c(c(=O)[nH]1)C1(CCCC1)Cc1ccccc1-2	-6%	-11%
69	CCCCC1NC(=S)N(C2CCCCC2)C1=O (configuration not stated)	-20%	-24%
70	Cc1cccc(NC(=O)Cn2c(O)c(N=NC(N)=S)c3ccccc32)c1	?	?
71	c1ccc2c(-c3[nH]ncc3CNCCCn3ncc4ccccc43)cccc2c1	-14%	-25%
72	COc1ccccc1NC(=O)Cn1cc(C(=O)c2ccncc2)c(=O)c2cc(C)ccc21	-7%[7.34 µM]	-23%[7.34 µM]
73	COc1ccc(C(CNC(=O)c2ccc(C)o2)N2CCOCC2)cc1 (configuration not stated)	-15%	0%
74	Cc1nc2c(C)cccc2cc1C(=O)N/N=C/c1ccc(N(C)C)cc1	-19%	-29%
75	Clc1ccc(C2[C@H]3CN(Cc4ccc(-c5ccccc5)cc4)[C@H](c4ccccc4)C34CC2(c2ccccc2)C4)cn1 (some centres not stated)	-8%	?
76	O=c1oc2c(O)cccc2cc1-c1nc2ccccc2[nH]1	-11%	-8%
77	Cc1cc(C)c(S(=O)(=O)N2CCCC(C(=O)NCc3ccncc3)C2)c(C)c1 (configuration not stated)	-9%	-15%
78	CN1CC=C2C(C#N)=C(N)C(C#N)(C#N)[C@H](c3cccc(Cl)c3)C2C1 (some centres not stated)	-5%	nt
79	CSCCC(C(=O)NC1=NCCS1)N1C(=O)c2ccccc2C1=O (configuration not stated)	2%	-4%
80	O=C(N/N=C/C1CC=CCC1)c1cc2ccccc2cc1O (configuration not stated)	-2%	-7%
81	COc1ccc(C(=O)OCC(=O)Nc2ccc(Cl)cn2)cc1	-13%	i
82	COc1ccc(S(=O)(=O)N2CCN(C(=O)c3cc(-c4ccc(C)cc4)n[nH]3)CC2)cc1	-28%	?
83	COc1cccc(C(=O)Nc2ccc(C(=O)OCc3cc(=O)n4cc(C)sc4n3)cc2)c1	-18%	i
84	Nc1ccc2c(c1)[nH]c(=O)c1cc(N)ccc12	-20%	-18%
85	COC(=O)c1cc(C(=O)NCc2ccc3c(c2)OCO3)cc([N+](=O)[O-])c1	-13%	?
86	Cc1cc(C)cc(NC(=O)COC(=O)CCc2ccc(S(=O)(=O)N3CCOCC3)cc2)c1	9%	9%
87	COc1cccc(-c2nc(S(=O)(=O)c3ccccc3)c(NCc3ccccc3)o2)c1	3%	-14%
88	O=C1NC(Cc2ccccc2)c2nc3ccc(Cl)cc3c(=O)n2-c2ncccc21 (configuration not stated)	?	-3%
89	CC(C)(C)c1cc(C(=O)O)n(Cc2ccc(Cl)cc2Cl)n1	-8%	-11%
90	CCCCOc1ccc(C(=O)OCC(=O)N2CCCCCC2)cc1	-19%	-8%
91	COc1cccc(/C=C/c2n[nH]c(=O)c(C#N)c2C)c1	5%	-20%
92	COC(=O)C1CCN(C(=O)Nc2ccccc2)CC1	-13%	-20%
93	COc1ccc(NC(=O)CCNC(=O)C2CCN(S(=O)(=O)c3ccc(OC)cc3)CC2)cc1	-14%	i
94	Cc1[nH]c(=O)[nH]c(=O)c1N1CCOCC1	-23%	-22%
95	O=C(Nc1ccccc1N1CCN(C(=O)c2ccc(Cl)cc2)CC1)c1cccc(F)c1	-5%	-12%
96	COc1ccc(C2CC(=O)c3c([nH]c(C(=O)OC(C)C)c3C)C2)cc1OC (configuration not stated)	-26%	-6%
97	COc1ccc(-c2noc(-c3ccccc3C(=O)Nc3cccc(OC)c3)n2)cc1	-14%	nt
98	COC(=O)c1ccc(NC(=O)c2ccc3nsnc3c2)cc1	-17%	?
99	CCOC(=O)c1sc(=S)n(-c2ccccc2)c1NC(C)=O	-3%[7.34 µM]	-1%[7.34 µM]
100	CCOc1ccccc1NC(=O)Cn1c(=O)oc2cc(Cl)ccc21	-13%	-10%

# Look-ups from the list:
# Vaccinia Venus with no. 62 is entered as -11%
# Vaccinia mCherry with no. 96 is entered as -6%
# Vaccinia mCherry with no. 30 is entered as 0%
# Vaccinia Venus with no. 19 is entered as -12%

# Further results follow:
item	SMILES	Vaccinia Venus	Vaccinia mCherry
101	Cc1ccc(/C=N/NC(=O)CSc2nc3ccccc3s2)o1	-11%	-14%
102	COCCCN(C(=O)c1ccco1)c1nc(-c2ccc(OC)cc2)cs1	-18%	-21%
103	COc1ccc(S(=O)(=O)N(CC(=O)Nc2cc(C)ccc2OC)Cc2ccccc2)cc1	-7%	-9%
104	CC(NS(=O)(=O)c1ccc2c(c1)OCCO2)c1ccccc1 (configuration not stated)	-10%	i
105	O=C(Nc1cccc(F)c1)Nc1cccc(Cl)c1	?	?
106	C/C(=N\N1CCN(Cc2ccc(Cl)cc2)CC1)c1ccc([N+](=O)[O-])cc1	-4%	-22%
107	C=CCc1cccc(CNc2c(C)cc(C)cc2C)c1O	-8%	-7%
108	O=C1c2ccccc2C(=O)c2[nH]cnc21	?	?
